# Bioassay records as filed in PubChem.
# Ecoli rRNA inh: selective bacterial rRNA inhibition in E. coli. E. coli WT GFP vs humanized-ribosome RFP mutants, fluorescence, 24 h; stronger effect = lower value; DMSO median 0, no signal -100. GFP signal change (wild-type ribosome), % (no concentration beside the values). 1.6% of 350,000 active. AID 720706;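 active means significant combined selectivity score with lowered wild-type GFP, culture density cut under 30%, mutant RFP and density less affected; inactive means any of these conditions unmet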; further: one replicate is shown; some compounds called inactive have numbers as strong as hits
# AF4-AF9 inh: MLL-AF4/AF9 protein interaction inhibition | AlphaScreen, biotin-AF4 peptide binding to FLAG-AF9 | 0.47% of 350,000 active | inhibition, % at 10 µM | AID 651704 | P42568;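 active means every replicate reaching a set inhibition limit, whatever the replicate mean, cut at about 25% in these data; inconclusive means mean inhibition reaches that limit but some replicates miss it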;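 further: 0% = plate neutral control median and 100% = total signal loss; the record names both 10 and 1 µM as test concentration; the first replicate is given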
# Target sequence (P42568 whole entry, looked up): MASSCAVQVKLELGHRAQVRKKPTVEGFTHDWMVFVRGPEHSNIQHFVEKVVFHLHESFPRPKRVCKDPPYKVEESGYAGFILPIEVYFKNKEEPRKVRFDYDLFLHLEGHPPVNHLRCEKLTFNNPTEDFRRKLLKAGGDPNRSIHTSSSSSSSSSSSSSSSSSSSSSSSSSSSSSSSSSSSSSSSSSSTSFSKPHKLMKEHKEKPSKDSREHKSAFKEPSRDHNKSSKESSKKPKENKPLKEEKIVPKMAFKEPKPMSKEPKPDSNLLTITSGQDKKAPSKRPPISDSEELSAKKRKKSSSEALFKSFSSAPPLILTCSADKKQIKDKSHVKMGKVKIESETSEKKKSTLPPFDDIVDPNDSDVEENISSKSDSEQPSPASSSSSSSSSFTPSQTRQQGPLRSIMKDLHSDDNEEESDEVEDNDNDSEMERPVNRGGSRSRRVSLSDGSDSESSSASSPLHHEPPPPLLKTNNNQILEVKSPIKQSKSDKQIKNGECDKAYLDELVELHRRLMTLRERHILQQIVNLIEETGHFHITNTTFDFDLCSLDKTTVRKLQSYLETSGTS
# FGF22 binding: FGF22 (human) thermal shift binding; 1.5% of 340,000 active; Q9HCT0; calls only at 9.99 µM; recombinant FGF22 thermal shift, SYPRO orange fluorescence; percent of sucrose octasulfate shift, DMSO zero; AID 651658;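 active means melting point raised past a set limit in the mean and every replicate; inconclusive means no clear call; three in four hits are not shown here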
# Target sequence (Q9HCT0 whole entry, looked up): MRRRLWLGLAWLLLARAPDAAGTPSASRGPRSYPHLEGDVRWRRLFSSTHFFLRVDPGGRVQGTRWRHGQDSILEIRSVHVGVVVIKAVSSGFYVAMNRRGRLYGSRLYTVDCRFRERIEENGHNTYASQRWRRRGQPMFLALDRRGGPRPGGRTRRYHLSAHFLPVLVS
# Ecoli rRNA inh OD600: also measured in Ecoli rRNA inh; calls as there; OD600 change, %; measured here: OD600 growth;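 optical density of the mix in the first replicate; 0 = DMSO median and -100 = no signal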
# Ecoli rRNA inh RFP: second read-out of Ecoli rRNA inh, no call of its own (marks repeat the call); RFP signal change, %; measured here: RFP humanized mutant strains;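 first replicate; 0 = DMSO median and -100 = no signal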
# * = called active by the depositor; i = inactive; ? = inconclusive.
SMILES,Ecoli rRNA inh,Ecoli rRNA inh OD600,Ecoli rRNA inh RFP,AF4-AF9 inh,FGF22 binding
Cc1ccc(S(=O)(=O)N2CCC[C@H]2C(=O)OCc2cc(=O)oc3cc(C)ccc23)cc1,-5,-10,5.0,0.0,i
CC[C@]12C(=O)N(C)C[C@H]([C@@H]3C(=O)N(C)C(=O)[C@@H]31)N2C(=O)c1ccc(C)cc1,9,11,-1.9,51*,i
OC[C@@H]1CN(C2CCCC2)C[C@H](n2cnc3c(N4CCCC4)ncnc32)O1,12,10,1.2,-1.3,i
CCN(Cc1ccccc1)C(=O)Nc1c(Cl)cccc1Cl,-1,3,1.1,8.6,i
C[C@@H]1CN([C@@H](C)CO)C(=O)c2cc(-c3cccnc3)cnc2O[C@@H]1CN(C)C(=O)Nc1ccc(C(F)(F)F)cc1,-6,0,4.6,0.4,i
Oc1ccc2ccccc2c1C=NNc1ccccn1,-11,9,-3.2,-1.4,i
CCOC(=O)c1sc(NC(=O)C2CC(=O)N(c3ccc4c(c3)OCCO4)C2)nc1C (stereo not given),-1,-16,0.2,?,i
COc1ccc(C2CC(=O)c3cc(OC)ccc3O2)cc1 (stereo not given),2,7,-0.3,-2.6,i
O=C(Nc1ccc(F)cc1)Nc1nnc([C@@H]2C[C@H](O)[C@@H](CO)O2)s1,10,4,2.0,-9.4,i
CC1(Cc2ccc(F)cc2)C(=O)Nc2c(Cl)ccc(Cl)c21 (stereo not given),-65,-79,-17,0.5,i
Cc1noc(C)c1S(=O)(=O)Nc1ccc2c(c1)C(=O)N([C@H](C)CO)C[C@H](C)[C@@H](CN(C)C(=O)Nc1ccc3c(c1)OCO3)OCCCC[C@H](C)O2,-1,1,3.0,5.3,i
CS(=O)(=O)N1CC2(C1)[C@@H](c1ccccc1)[C@@H](CO)N2CC1CCCC1,-4,-2,0.1,-20,i
Cc1ccc(Cn2c(C)c(C(=O)NCc3cccc(C(F)(F)F)c3)sc2=O)cc1,9,2,-7.8,-1.4,i
C[C@H](CO)N1C[C@H](C)[C@@H](CN(C)CC2CCOCC2)Oc2ncc(C#C[C@@H](C)O)cc2C1=O,3,10,-1.2,-3.0,i
C[C@@H](c1ccccc1)N1Cc2ccccc2Oc2cc(Br)ccc2S1(=O)=O,-2,3,-4.4,-0.5,i
CCN(CC)C(=O)C1=C(C)N(Cc2ccccc2)C(=O)C(CC(=O)NCCCN(C)C)C1 (stereo not given),6,7,-6.6,4.4,i
O=C(NCc1ccccc1)c1cc(C2CCCN(S(=O)(=O)c3cccc4cccnc34)C2)on1 (stereo not given),-9,-9,0.9,-3.8,i
CC(C)NC(=O)N(C)C[C@@H]1Oc2c(NS(C)(=O)=O)cccc2C(=O)N([C@H](C)CO)C[C@H]1C,6,7,-1.2,-2.9,i
CN(CCOc1ccc(Cl)cc1)C(=O)c1cccc(S(=O)(=O)N2CCN(Cc3ccccc3)CC2)c1,-10,-17,-0.2,4.0,i
CC(C)Nc1ncnc2c1ncn2[C@H]1CN(CCN2CCOCC2)C[C@@H](CO)O1,8,7,-0.9,-2.7,i
CC(C)NC(=O)Nc1ccc2c(c1)C(=O)N([C@@H](C)CO)C[C@@H](C)[C@H](CN(C)C(=O)NC(C)C)O2,-1,-5,-3.0,-0.6,i
CC(C)C[C@H]1CN([C@@H](Cc2ccc(O)cc2)CN2CCC[C@@H]2CN2C(=S)NC[C@@H]2Cc2ccccc2)C(=S)N1CC1CCCCCC1,17,14,7.0,-53,i
O=C(COC(=O)COc1ccc(Cl)cc1)Nc1cccnc1Cl,11,12,31,-2.2,i
CCNC(=O)C[C@@H]1CC[C@@H]2[C@H](COC[C@@H](O)CN2C(=O)C2CCCC2)O1,3,15,12,-2.7,i
Cc1ccc(S(=O)(=O)NCC[C@@H]2CC[C@H](NC(=O)C3CCOCC3)[C@H](CO)O2)cc1,1,6,-2.9,1.5,i

# (more compounds)
SMILES,Ecoli rRNA inh,Ecoli rRNA inh OD600,Ecoli rRNA inh RFP,AF4-AF9 inh,FGF22 binding
COc1ccc2c3c(n(C)c2c1)[C@@H](CO)N(C(=O)Nc1ccc(F)cc1)CC31CCN(C(=O)c2ccccc2F)CC1,-6,-7,5.8,-8.5,i
COc1cccc(-c2ccc3c(c2)[C@@H]2[C@@H](CCN2C(=O)c2cnccn2)[C@@H](CO)N3)c1,0,-14,8.2,1.4,i
Cc1noc(C)c1S(=O)(=O)Nc1ccc2c(c1)C(=O)N([C@H](C)CO)C[C@@H](C)[C@@H](CN(C)C(=O)Nc1cccc3ccccc13)O2,0,4,2.6,-1.5,i
OCc1ccc(-c2cccc3nccn23)cc1,5,13,1.3,-0.6,i
COc1ccc2[nH]c3c(c2c1)CCN1C(=O)C(CC(=O)NCc2ccc(OC)c(OC)c2)C[C@H](C(=O)N(C(C)C)C(C)C)[C@@]31C (stereo not given in full),-1,-2,1.0,5.4,i
COCC(=O)N1CCCCN2[C@H](CO)[C@H](c3ccc(C#Cc4cccnc4)cc3)[C@@H]2C1,2,-3,-0.3,-4.7,i
CCCCN1C(=O)C(C(=O)OCc2ccccc2)CC2=C1CCCC2=O (stereo not given),0,7,-0.2,-0.8,i
C[C@H](NC(=O)C[C@H]1CC[C@@H]2[C@H](COC[C@@H](O)CN2Cc2ccc(C(F)(F)F)cc2)O1)c1ccccc1,-5,-29,1.2,-1.2,i
O=C(C[C@@H]1CC[C@H]2[C@@H](COC[C@@H](O)CN2Cc2ccncc2)O1)NCC1CC1,-3,-3,-4.5,-1.5,i
COc1ccc(NC(=O)CN(C)C(=O)c2cccc(S(=O)(=O)N3CCN(c4ccc(F)cc4)CC3)c2)cc1,-9,-20,0.0,-3.8,i
Cc1noc(C)c1NC(=O)Nc1ccc2c(c1)CC(=O)N([C@H](C)CO)C[C@H](C)[C@H](CN(C)C(=O)Nc1c(C)noc1C)O2,4,16,-0.1,-30,i
O=C(Cn1cc(COc2ccc(-n3cccc3)cc2)nn1)NS(=O)(=O)c1ccccc1C(F)(F)F,3,1,5.6,-1.5,i
COCC#Cc1cnc2c(c1)C(=O)N([C@H](C)CO)C[C@@H](C)[C@@H](CN(C)S(=O)(=O)c1cn(C)cn1)O2,-1,10,2.5,-0.8,i
CC(C)CC1C(=O)N(Cc2cn(CCC3OCCCO3)nn2)CCS(=O)(=O)N1Cc1ccc(-c2ccc(F)cc2)cc1 (stereo not given),3,5,-7.7,-4.3,i
O=C(NNc1ccccc1)NC(Cc1ccccc1)C(=O)O (stereo not given),14,18,-0.4,-5.2,i
O=C(C[C@H]1CC[C@@H]2[C@H](COC[C@H](O)CN2Cc2ccccc2)O1)N[C@H]1CCN(Cc2ccccc2)C1,4,3,-0.1,3.2,i
CCc1sc(N2[C@H](C#N)[C@@H](c3ccccc3-c3ccc(F)cc3)[C@@H]2CO)nc1C,-3,-38,30,-1.6,i
COCCNC(=O)C1CCCN(C(=O)Cc2cccc3ccccc23)CC1 (stereo not given),17,29,-0.6,-13,i
CO[C@H](CN(C)Cc1cc(F)ccc1F)[C@H](C)CN([C@H](C)CO)S(=O)(=O)c1ccc(C)cc1,-7,-6,-0.5,0.6,i
COc1cccc(-c2cn(CC[C@H]3CC[C@@H](NC(C)=O)[C@@H](CO)O3)nn2)c1,-1,3,0.7,1.3,i
COc1ccccc1-c1cn(CC[C@@H]2CC[C@@H](NC(=O)C3CCOCC3)[C@@H](CO)O2)nn1,3,1,-2.7,-0.7,i
C[C@@H]1CCCCO[C@@H](CN(C)Cc2ccc(C(F)(F)F)cc2)[C@@H](C)CN([C@@H](C)CO)C(=O)c2cc(NC(=O)Nc3ccc(F)cc3)ccc2O1,5,10,1.7,1.1,i
CSc1nn(CCC#N)c(=O)[nH]c1=O,4,14,3.9,-0.6,i
CCc1cnc(N2[C@H](CO)[C@@H](c3ccccc3)[C@@H]2C#N)s1,-6,-13,-0.2,0.9,i
C[C@@H]1CCCCO[C@@H](CN(C)C(=O)Nc2cccc3ccccc23)[C@H](C)CN([C@H](C)CO)C(=O)c2cc(NC(=O)c3ccccc3)ccc2O1,3,10,-1.6,-1.5,i

# Remaining list, next part.
SMILES,Ecoli rRNA inh,Ecoli rRNA inh OD600,Ecoli rRNA inh RFP,AF4-AF9 inh,FGF22 binding
C[C@@H]1CN([C@H](C)CO)C(=O)c2cc(C#CCc3ccccc3)cnc2O[C@H]1CN(C)Cc1cccc(C(=O)O)c1,-3,-2,0.3,5.6,i
C#CCOCCOCCOCCNc1nc(N2CCN(C(=O)Cn3cc(CCO)nn3)CC2)nc(N2CCN(C(=O)[C@H](CCCCN)n3cc(CCCC)nn3)CC2)n1,5,-3,-5.7,7.8,i
COc1ccc(NC(=O)C2(C)Cc3c(-c4ccc(N(C)C)cc4)ccnc3O2)cc1 (stereo not given),6,5,-1.4,11,i
COC(=O)C[C@@H]1CC[C@@H]2[C@@H](COc3ccc(NS(=O)(=O)c4ccccc4Cl)cc3C(=O)N2C)O1,1,0,-0.6,-4.1,i
COc1ccc(NC(=O)N[C@H]2CC[C@H](CCNC(=O)CN3CCOCC3)O[C@@H]2CO)cc1,4,8,-0.4,-0.3,i
O=C(/C=C/[C@H]1O[C@@H](n2ccc(=O)[nH]c2=O)[C@H](O)[C@@H]1O)N1CCN(CCc2ccccc2)CC1,0,10,-0.8,-1.7,i
COCC(=O)N(C)C[C@H]1Oc2cc(C3=CCCC3)ccc2S(=O)(=O)N([C@@H](C)CO)C[C@@H]1C,1,-7,-2.7,-1.1,i
CC1(C(=O)NS(=O)(=O)c2cccc(F)c2)CCN1C(=O)c1cccc(F)c1 (stereo not given),4,10,2.1,-4.6,i
COc1ccc(CC(N)c2csc(NC(=O)c3ccccc3)n2)cc1 (stereo not given),-1,-3,2.6,3.8,i
C[C@H](CO)N1C[C@H](C)[C@@H](CN(C)S(C)(=O)=O)Oc2cc(-c3ccccc3)ccc2S1(=O)=O,-11,-21,-2.0,-7.7,i
CC(=O)N(C)C[C@H]1Oc2ncc(-c3cccc(C#N)c3)cc2C(=O)N([C@@H](C)CO)C[C@H]1C,2,9,-4.4,-0.3,i
Cc1noc(C)c1NC(=O)N(C)C[C@H]1Oc2c(NS(=O)(=O)c3cn(C)cn3)cccc2C(=O)N([C@H](C)CO)C[C@H]1C,2,10,-0.2,-2.4,i
CN(C)CC(=O)N1CCCCN2[C@H](CO)[C@@H](c3ccc(/C=C/c4ccccc4)cc3)[C@@H]2C1,4,-1,5.2,-5.6,i
O=C(O)C[C@H]1CC[C@@H](NC(=O)c2ccccc2F)[C@H](CO)O1,3,14,-1.2,-6.6,i
CCOC(=O)N1CCN(C(=O)C[C@@H]2C[C@@]3(C(=O)OC)CC(C)(C)CC=C3N(Cc3ccc4c(c3)OCO4)C2=O)CC1,-3,-4,1.8,1.7,i
COc1ccc(CCNC(=O)c2cc(S(=O)(=O)N3CCCCCC3)ccc2OC)cc1OC,-11,-19,0.4,-6.1,i
CCC(=O)N[C@H]1CC[C@H](CCn2cc(-c3cccc(OC)c3)nn2)O[C@@H]1CO,0,3,-1.8,-0.7,i
CC(=O)N1CC2(C1)[C@@H](c1ccc(-c3ccc(F)cc3)cc1)[C@@H](CO)N2CC1CC1,-2,-3,0.3,1.2,i
COC(=O)c1ccc2nc(-c3ccco3)c(Cc3ccccc3OC)n2c1,8,14,14,-3.2,i
O=S(=O)(c1ccc(F)cc1)N1CC[C@H]2[C@H](CO)Nc3ccc(-c4ccccc4F)cc3[C@H]21,-25,-57,15,1.5,i
S=C(NCCCN1CCN(CCCNC(=S)NC2CCCCC2)CC1)NC1CCCCC1,2,-7,11,9.5,i
C[C@@H]1CN([C@@H](C)CO)C(=O)Cc2cc(NC(=O)C3CCCCC3)ccc2O[C@@H]1CN(C)Cc1ccc(C(F)(F)F)cc1,-5,-7,0.5,0.7,i

# A draw from above in order of count of non-hydrogen atoms, falling.
SMILES,Ecoli rRNA inh,Ecoli rRNA inh OD600,Ecoli rRNA inh RFP,AF4-AF9 inh,FGF22 binding
C[C@@H]1CN([C@@H](C)CO)C(=O)c2cc(-c3cccnc3)cnc2O[C@@H]1CN(C)C(=O)Nc1ccc(C(F)(F)F)cc1,-6,0,4.6,0.4,i
COCC#Cc1cnc2c(c1)C(=O)N([C@H](C)CO)C[C@@H](C)[C@@H](CN(C)S(=O)(=O)c1cn(C)cn1)O2,-1,10,2.5,-0.8,i
CC(C)NC(=O)N(C)C[C@@H]1Oc2c(NS(C)(=O)=O)cccc2C(=O)N([C@H](C)CO)C[C@H]1C,6,7,-1.2,-2.9,i
Cc1ccc(Cn2c(C)c(C(=O)NCc3cccc(C(F)(F)F)c3)sc2=O)cc1,9,2,-7.8,-1.4,i
CCC(=O)N[C@H]1CC[C@H](CCn2cc(-c3cccc(OC)c3)nn2)O[C@@H]1CO,0,3,-1.8,-0.7,i
CC1(C(=O)NS(=O)(=O)c2cccc(F)c2)CCN1C(=O)c1cccc(F)c1 (stereo not given),4,10,2.1,-4.6,i
O=C(NNc1ccccc1)NC(Cc1ccccc1)C(=O)O (stereo not given),14,18,-0.4,-5.2,i
CCc1cnc(N2[C@H](CO)[C@@H](c3ccccc3)[C@@H]2C#N)s1,-6,-13,-0.2,0.9,i
OCc1ccc(-c2cccc3nccn23)cc1,5,13,1.3,-0.6,i

# Not all compounds are listed; count on the stated rates, not on these rows.
